Source: PubChem
PAFAH1B2 FP inh = PAFAH1B2 enzyme inhibitors, primary screen, biochemical, fluorescence polarization, human. Platelet-activating factor acetylhydrolase IB subunit alpha2 (Homo sapiens), P68402. recombinant PAFAH1B2, FP-rhodamine activity probe. inhibition, % at 3.39 µM. actives 1.2% (n = 340,000). AID 492953, 2010;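 active means inhibition above the mean of all tested compounds plus 3 SD, cut at about 24% in these data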;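 further: 0% = enzyme with DMSO and 100% = wells lacking PAFAH1B2; many of its hits are not listed in these tables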
LYPLA2 counter = LYPLA2 inhibitors, primary screen, counter-screen for PME1 inhibitor project, biochemical, fluorescence polarization, FP-Rh probe ABPP; recombinant LYPLA2; inhibition, % at 5.9 µM; actives 0.38% (n = 320,000);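 active means inhibition above the screen-wide mean plus 3 SD, limit set per campaign, cut at about 26% in these data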;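 further: 0% = LYPLA2 with DMSO and 100% = wells lacking LYPLA2 enzyme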
ZTA counter = blocks Epstein-Barr virus ZTA, an EBNA-1 counter-screen; P03206; ZTA-DNA binding, fluorescence polarization; inhibition, % at 11 µM; actives 0.15% (n = 320,000); in the data active means inhibition above about 33%
Target sequence (P03206 whole entry, looked up): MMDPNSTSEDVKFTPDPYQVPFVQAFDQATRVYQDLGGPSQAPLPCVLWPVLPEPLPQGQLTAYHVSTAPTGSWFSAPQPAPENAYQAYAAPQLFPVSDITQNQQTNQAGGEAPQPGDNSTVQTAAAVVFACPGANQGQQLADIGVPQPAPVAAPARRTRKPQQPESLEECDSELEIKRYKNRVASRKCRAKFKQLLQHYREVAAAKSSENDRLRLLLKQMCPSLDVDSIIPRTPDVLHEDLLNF
EBNA-1 inhibitor = EBNA-1 DNA-binding inhibitors, primary screen, biochemical, fluorescence polarization; inhibition, % at 14.8 µM; actives 0.34% (n = 300,000); in the data active means inhibition above about 28%
PAFAH2 inh = PAFAH2 enzyme inhibitors, primary screen, biochemical, fluorescence polarization, human; Platelet-activating factor acetylhydrolase 2, cytoplasmic (Homo sapiens), Q99487; recombinant PAFAH2, FP-rhodamine activity probe; inhibition, % at 3.39 µM; actives 0.99% (n = 340,000); AID 492956, 2010;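 active means inhibition above the mean over all tested compounds plus 3 SD, cut at about 30% in these data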;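 further: inhibitors block probe labeling of enzyme so polarization drops; 0% = enzyme with DMSO and 100% = wells lacking PAFAH2 protein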
PREPL inh = PREPL enzyme inhibitors, primary screen, biochemical, fluorescence polarization; actives 0.68% (n = 320,000); inhibition, % at 5.96 µM; recombinant PREPL, fluorescence polarization activity-based probe; Prolyl endopeptidase-like (Homo sapiens), Q4J6C6; AID 2751, 2010; in the data active means inhibition above about 43%;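 further: 0% = enzyme with DMSO and 100% = wells lacking enzyme; many of its hits are not listed in these tables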
Target sequence (Q4J6C6 whole entry, looked up): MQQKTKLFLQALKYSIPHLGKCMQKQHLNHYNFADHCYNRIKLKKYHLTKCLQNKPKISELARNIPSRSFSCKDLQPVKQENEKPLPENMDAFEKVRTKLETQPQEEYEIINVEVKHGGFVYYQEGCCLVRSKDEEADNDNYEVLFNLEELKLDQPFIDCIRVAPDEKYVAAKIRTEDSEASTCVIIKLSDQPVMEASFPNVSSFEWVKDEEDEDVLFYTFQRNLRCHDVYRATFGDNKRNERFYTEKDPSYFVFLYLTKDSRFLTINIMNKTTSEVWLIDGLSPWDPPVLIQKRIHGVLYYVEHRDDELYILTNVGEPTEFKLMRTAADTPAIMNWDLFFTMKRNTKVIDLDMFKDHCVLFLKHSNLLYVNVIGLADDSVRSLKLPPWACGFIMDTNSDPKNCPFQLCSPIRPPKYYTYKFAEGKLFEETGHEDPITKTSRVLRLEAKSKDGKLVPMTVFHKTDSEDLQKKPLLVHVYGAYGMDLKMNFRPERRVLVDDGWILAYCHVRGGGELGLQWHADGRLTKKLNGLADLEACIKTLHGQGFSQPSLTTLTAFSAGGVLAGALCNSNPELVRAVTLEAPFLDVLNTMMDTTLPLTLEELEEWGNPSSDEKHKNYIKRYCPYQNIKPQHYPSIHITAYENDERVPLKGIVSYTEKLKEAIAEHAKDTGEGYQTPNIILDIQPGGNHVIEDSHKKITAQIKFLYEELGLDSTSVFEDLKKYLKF
LYPLA1 inh = LYPLA1 inhibitors, primary screen, counter-screen for PME1 inhibitor project, biochemical, fluorescence polarization, FP-Rh probe ABPP; inhibition, % at 5.9 µM; actives 0.16% (n = 320,000); recombinant LYPLA1; Acyl-protein thioesterase 1 (Homo sapiens), O75608;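 active means inhibition above the mean of all tested compounds plus 3 SD, set per campaign, cut at about 14% in these data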;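 further: inhibitors block serine hydrolase probe labeling of LYPLA1 so polarization falls; 0% = enzyme with DMSO and 100% = wells lacking LYPLA1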
PAFAH1B3 FP inh = PAFAH1B3 enzyme inhibitors, primary screen, biochemical, fluorescence polarization, human; recombinant PAFAH1B3, FP-rhodamine probe; inhibition, % at 3.39 µM; actives 0.28% (n = 340,000);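 active means inhibition above the screen-wide average of all tested compounds plus 3 SD, cut at about 25% in these data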;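 further: 0% = enzyme with DMSO only and 100% = wells lacking PAFAH1B3 protein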
The depositor's hits bear a star; x = no result given.

SMILES	PAFAH1B2 FP inh	LYPLA2 counter	ZTA counter	EBNA-1 inhibitor	PAFAH2 inh	PREPL inh	LYPLA1 inh	PAFAH1B3 FP inh
CCOc1ccc(C(=O)c2nc3c(n2O)CCCC3)cc1	-4	-1	1	-11	-2	0	1	15
Cc1ccc(-n2nc(C)c(NC(=O)COC(=O)c3ccccc3NCCO)c2C)cc1	1	4	0	-1	0	10	-1	3
CCOCCCNC(=O)c1ccc(CS(=O)(=O)Cc2ccc(C)cc2)o1	0	3	3	6	2	22	-2	12
CCCc1cc(=O)n2[nH]c(SCc3ccccc3)nc2n1	14	-3	-15	-2	58*	0	-2	-2
Cc1ccccc1NS(=O)(=O)c1ccc(NC(=O)N2CCCCC2)cc1	1	-2	-6	-6	9	-4	-2	9
N#CC(c1cccc(C(F)(F)F)c1)(c1ncc(C(F)(F)F)cc1Cl)N1CCOCC1 (stereo not given)	4	1	3	-10	9	7	0	5
O=C(COC(=O)c1ccccc1C(=O)c1ccccc1)c1ccco1	5	2	-2	-5	43*	9	2	6
O=S(=O)(Nc1cccc(C(F)(F)F)c1)c1cnc[nH]1	8	-7	-7	-10	-2	1	-4	7
Cc1ccc2nc(-c3ccncc3)cc(-c3ccccc3)c2c1	1	-7	10	3	6	1	-6	1
Cc1ccc(S(=O)(=O)Nc2nc(C)c(NC(=O)Nc3ccc(Cl)cc3Cl)s2)cc1	12	6	6	4	13	8	-5	13
COc1ccc(NC(=O)CSc2nc3ccccc3c(=O)n2CCCN2CCCCC2)c(OC)c1	3	1	-3	7	4	9	-1	0
O=C(NCc1cccs1)c1cnc2sccn2c1=O	-6	-4	22	8	-3	2	0	-3
Cc1cccc(NS(=O)(=O)c2ccc(-n3cccn3)cc2)c1C	-1	-2	-4	-5	-4	-12	-3	9
COc1ccc(N2CC(O)=C(c3nc4ccccc4s3)C2=N)c(OC)c1	2	5	-30	5	30*	5	1	-6
O=C(/C=C/c1ccc(Cl)c(Cl)c1)NCc1ccco1	7	6	15	1	-2	8	-7	3
CCC(=O)N1c2ccc(S(=O)(=O)NCCc3ccc(C)cc3)cc2CC1C (stereo not given)	7	1	-21	-12	-7	-58	-1	2
O=C(O)c1cccc2c1C(=O)c1ccc(-c3ccc(F)cc3OCc3ccccc3)cc1S2(=O)=O	1	35*	5	x	25	36	-9	0
COc1ccc(OCCCC(=O)OCC(=O)Nc2c(C)nn(-c3ccccc3)c2C)cc1	8	4	0	-3	5	10	1	1
COc1cccc(OC)c1C(=O)NC(=S)N1CCN(c2ccc(C(F)(F)F)cc2[N+](=O)[O-])CC1	-1	-1	-14	-4	-3	13	-5	3
CCOc1ccc(NS(=O)(=O)c2ccc(OCC(=O)N3CCCC3)cc2)cc1	-2	-2	7	6	4	-12	-1	6
Cc1cccc(C(=O)Oc2ccc(/C=N/NC(=O)Cc3ccc([N+](=O)[O-])cc3)cc2)c1	3	4	8	-3	13	0	1	2
O=C(c1ccco1)N1CCN(C(=O)C2CC(c3ccc(Cl)c(Cl)c3)=NO2)CC1 (stereo not given)	8	2	5	-3	15	7	2	9
COC(=O)Cc1cc(=O)[nH]c(/N=C(\N)Nc2ccc(C(C)C)cc2)n1	3	0	-19	-4	24	9	3	7
O=c1cc(NS(=O)(=O)c2ccccc2)nc(SCc2ccc(Cl)cc2)[nH]1	22	-7	20	6	-17	-9	-6	10
Cc1nnc(SCC2CCCO2)n1-c1ccccc1 (stereo not given)	1	0	8	7	4	14	-1	-2
COc1ccc(NC(=O)Nc2sc(NS(=O)(=O)c3ccccc3)nc2C)cc1	1	-6	25	16	0	-2	-2	15
O=C(O)C1c2ccccc2C(=O)N(Cc2ccc(F)cc2)C1c1ccncc1 (stereo not given)	x	5	-25	-1	x	-1	4	x
COc1ccc(NS(=O)(=O)c2ccc(C)c(C(=O)N3CCCCCCC3)c2)cc1	6	-4	12	-8	2	0	-1	6
COc1ccc(NS(=O)(=O)c2ccc(O)c(NC(=O)c3ccc(S(=O)(=O)N4CCCC4)cc3)c2)cc1	2	-4	-5	-11	-2	15	-6	0
Cc1cc(C)c(C#N)c(SCCS(=O)(=O)Cc2ccccc2)n1	5	4	-9	4	2	-6	1	-3
Fc1ccc(-n2cc(-c3ccccc3)c3c(NN4CCOCC4)ncnc32)cc1	3	3	-6	-4	6	24	1	3
CCCc1cc(=O)oc2c3c(cc(OCC(=O)N4CCC[C@H]4C(=O)O)c12)OC(C)(C)CC3	1	7	-1	11	42*	-2	0	5
Cc1ccc(NC(=O)CN(C)C(=O)COC(=O)CNS(=O)(=O)c2ccc(F)c(F)c2F)cc1	0	3	2	0	3	4	1	4
COC(=O)CCC(=O)OC1(C)C(=O)C=C2C=C(c3ccsc3)OC=C2C1=O (stereo not given)	-6	-2	22	17	21	6	-2	9
COc1ccc(NS(=O)(=O)c2cccc(C(=O)NCC3(N4CCOCC4)CCCCC3)c2)cc1	9	-2	-3	0	-12	6	1	-4
CCOC(=O)C1CCN(C(=O)c2ccccc2NS(=O)(=O)c2ccc(F)c(F)c2)CC1	8	-5	-2	-5	25	-1	-3	3
O=C(COc1ccc(Br)cc1)N1CCN(S(=O)(=O)/C=C/c2ccccc2)CC1	2	9	8	-12	1	-46	-2	0
CC(C)c1ccc(S(=O)(=O)N2CCN(C(=O)CN3C(=O)NC4(CCCC4)C3=O)CC2)cc1	-5	4	4	-5	0	-14	3	3
Cc1ccc(C(=O)N2CCCC(CCC(=O)N3CCN(c4ccccn4)CC3)C2)cc1 (stereo not given)	-2	9	11	3	-9	18	0	9
O=C(Oc1oc(-c2ccco2)nc1C=Nc1ccccc1)c1ccco1	3	4	-3	0	11	10	0	5
Cc1c(C)c2c(OCC(=O)NC3CC3)cc3c(c2oc1=O)CCC(C)(C)O3	11	-5	-5	-4	78*	6	-2	0
CCn1nc(C)c(C(=O)Nc2cc(Oc3ccc(Cl)cc3)cc([N+](=O)[O-])c2)c1C	1	3	-10	8	-21	15	-16	1
COc1ccc(Cl)cc1NC(=O)CN1CCN(S(=O)(=O)N2CCC(C)CC2)CC1	-2	1	9	0	0	10	5	2
COc1ccc(C2C(C(=O)OCC3CCCO3)=C(C)NC3=C2C(=O)CC(c2ccco2)C3)cc1O (stereo not given)	2	-4	6	7	0	10	-3	-3
C[C@H](NC(=O)c1nc[nH]c1C(=O)NCc1ccccc1)C(=O)OCc1ccccc1	11	2	10	6	-3	-8	2	5
N#Cc1c(-c2ccccc2)cc(-c2ccccc2)nc1SCCC(=O)O	5	2	7	3	-6	13	-4	5
CN(C(=O)CSc1nc(O)cc(=O)n1-c1ccccc1F)c1ccccc1	2	4	12	1	22	2	1	5
O=C(NC1CCN(Cc2ccccc2)CC1)c1cccc(S(=O)(=O)Nc2ccc(F)cc2)c1	9	15	14	x	9	6	4	2
C=CCNc1nc(C(=O)OCC(=O)c2ccc(C)c([N+](=O)[O-])c2)cs1	3	9	2	6	4	7	-2	16
CCc1ccc(-c2csc(NC(=O)C3CC(=O)N(c4ccc5c(c4)OCCO5)C3)n2)cc1 (stereo not given)	-2	-15	0	-10	0	7	-5	5
Cc1ccc(NS(=O)(=O)c2cccc(C(=O)Nc3cccnc3)c2)c(C)c1	0	x	x	x	-2	11	x	6
COc1cccc(CNC(=O)C2CCCN(c3nc4ccccc4o3)C2)c1 (stereo not given)	6	2	-20	7	-4	-2	4	4
Cc1cccc(NS(=O)(=O)c2cc3c4c(c2)CC(=O)N4CCC3)c1C	-2	-4	-8	-8	10	0	-1	1
COc1cc(S(=O)(=O)Nc2ccccc2C)ccc1NC(=O)c1ccncc1	4	6	-1	-15	6	-10	3	9
Cc1cc(N/N=C/c2ccc(F)cc2)nc(-n2nc(C)cc2C)n1	x	7	6	2	x	2	1	x
Cc1nn(-c2ccccc2)c2[nH]c(=O)c(CNCc3ccc4c(c3)OCO4)cc12	3	4	-1	-1	2	4	3	1
CCNC(=O)COn1c(SCC(=O)NCC)nc2ccccc2c1=O	3	-4	7	1	-1	-2	1	13
Cc1ccc(NS(=O)(=O)c2cccc(C(=O)NCC(c3ccco3)N3CCCCC3)c2)cc1 (stereo not given)	2	-5	10	12	2	-13	-1	1
O=C(COC(=O)c1ccc(S(=O)(=O)Nc2ccccc2)cc1)NCCN1C(=O)CSC1=O	1	-1	15	6	2	-2	4	-3
O=C(/C=C/c1ccccc1Cl)NCCc1ccccc1	0	6	3	-9	-5	-8	1	6

Seven compounds from above, sorted by formula weight, descending:
SMILES	PAFAH1B2 FP inh	LYPLA2 counter	ZTA counter	EBNA-1 inhibitor	PAFAH2 inh	PREPL inh	LYPLA1 inh	PAFAH1B3 FP inh
O=C(COC(=O)c1ccc(S(=O)(=O)Nc2ccccc2)cc1)NCCN1C(=O)CSC1=O	1	-1	15	6	2	-2	4	-3
Cc1ccc(NS(=O)(=O)c2cccc(C(=O)NCC(c3ccco3)N3CCCCC3)c2)cc1 (stereo not given)	2	-5	10	12	2	-13	-1	1
CN(C(=O)CSc1nc(O)cc(=O)n1-c1ccccc1F)c1ccccc1	2	4	12	1	22	2	1	5
COc1cccc(CNC(=O)C2CCCN(c3nc4ccccc4o3)C2)c1 (stereo not given)	6	2	-20	7	-4	-2	4	4
C=CCNc1nc(C(=O)OCC(=O)c2ccc(C)c([N+](=O)[O-])c2)cs1	3	9	2	6	4	7	-2	16
N#Cc1c(-c2ccccc2)cc(-c2ccccc2)nc1SCCC(=O)O	5	2	7	3	-6	13	-4	5
Cc1cc(N/N=C/c2ccc(F)cc2)nc(-n2nc(C)cc2C)n1	x	7	6	2	x	2	1	x

Carrying on:
SMILES	PAFAH1B2 FP inh	LYPLA2 counter	ZTA counter	EBNA-1 inhibitor	PAFAH2 inh	PREPL inh	LYPLA1 inh	PAFAH1B3 FP inh
CCc1ccc(C2C(C(=O)O)c3ccccc3C(=O)N2C)cc1 (stereo not given)	3	6	0	4	3	-2	5	12
Cc1cccc(NS(=O)(=O)c2ccc(C(=O)N3CCCC3)cc2)c1C	-1	6	-2	-8	2	-4	0	2
CCCCc1ccc(NS(=O)(=O)c2cccs2)cc1	5	2	3	3	-1	0	-3	8
COc1ccc(S[C@@H](CCN2CC[C@H](C)CCC2=O)c2ccccc2)cc1	-4	1	-4	x	10	-2	-3	1
Cc1ccc(NS(=O)(=O)c2ccc(C)c(NC(=S)NCCN3CCOCC3)c2)c(C)c1	3	x	x	x	4	10	x	0
CCc1ccc(NS(=O)(=O)c2ccc(OC)c(C)c2)cc1	7	-2	-3	-7	2	-4	0	-6
CCc1ccc(NS(=O)(=O)c2ccc3[nH]cc(C(=O)N(C)Cc4ccco4)c(=O)c3c2)cc1	4	0	0	1	7	-5	-2	8
O=C(Cc1ccccc1)Nc1cc(C(=O)c2ccccc2)ccc1N1CCOCC1	0	11	-13	-3	-3	16	-3	-2
Cc1ccc(C)c(NS(=O)(=O)c2cc(C(=O)Nc3cccc(N(C)S(C)(=O)=O)c3)ccc2C)c1	-5	-32	6	-11	-10	8	-19	1
Cc1ccc(NS(=O)(=O)c2cc(-c3n[nH]c(=O)c4ccccc34)ccc2C)cc1	1	-6	4	1	-2	-14	-5	4
O=C(Nc1cccc(NS(=O)(=O)c2ccc(S(=O)(=O)NC3CC3)cc2)c1)c1ccccn1	-3	3	5	-6	0	-2	3	2
CCOC(=O)Nc1cccc(NC(=O)c2cc(OC)cc(OC)c2)c1	-4	-9	4	-3	1	11	-4	7
CC(=O)c1ccc(NC(=O)COC(=O)CCC2CCCC2)cc1	5	x	x	x	27	24	x	3
COc1ccc(OC)c(NC(=O)CSc2nc3ccccc3c(=O)n2CCNC(C)=O)c1	2	3	-13	-6	3	3	4	9
Cn1nc(-c2ccccc2)c(CSc2ccccc2Cl)c1Cl	0	1	2	6	-2	19	1	7

This is a subset. The share of hits here may be higher or lower than overall.
